StopGo reporter = lowers the luciferase signal of an FMDV 2A StopGo reporter. AID 1159524. human cells with a luciferase reporter of 2A StopGo recoding; control for the full effect not named in the record. 410,000 tested, 1.2% active. Potency, µM (top dose mostly 57.9 µM), for the others: top-dose signal change, negative = less light; active = well fitted falling curve with a large enough effect; inconclusive = small, poorly fitted or top-dose-only effect; inactive = no such curve, though single readings can be large or run the other way; tested in HEK293T cells; also: % is scaled to controls: 0 for no effect and ±100 for the full control effect; nearly all actives have a fitted effect of over 45% in size; luciferase light after 4 h
Marburg entry inh = inhibitors of Marburg virus binding or cell entry; Marburg virus pseudotyped entry inhibition, cell reporter; control for the full effect not named in the record; about a third of the inactives were read at about 46 µM; Potency, µM (doses to about 37.8 µM), for inactives: at the top dose activity change, negative = inhibition, most hits filed as inhibitors; 300,000 tested, 1.8% active; active = well fitted inhibition curve with a large enough effect; inconclusive = small, poorly fitted or top-dose-only effect, or effect the other way; inactive = flat fitted curve, though single readings scatter; tested in HEK293 cells; about a fifth of its hits are not listed in these tables; also: % is scaled to controls: 0 for no effect and ±100 for the full control effect; luciferase read-out
NS1 function inh = influenza NS1 inhibition; 270,000 tested, 0.4% active; Potency, µM (top dose mostly 46.1 µM), inactives show at the highest dose activity, positive = more growth; S. cerevisiae slowed by influenza A NS1, growth recovery by OD600; active means well fitted rising curve with a large enough effect; inconclusive means small, poorly fitted or top-dose-only effect; inactive means no such curve, though single readings can be large or run the other way; also: nearly all actives have a fitted effect of over 50% in size
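Recovery from NS1-induced slow growth read by OD600 in budding yeast switched to galactose assay medium (pH 6.0, -URA) at 1:100 dilution. Compound 23 nl per well; the matching strain lacking NS1 serves as control.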
LASV entry inh = blocks Lassa virus binding to or entry into cells; Lassa virus pseudotype entry inhibition, cell reporter; control for the full effect not named in the record; Potency, µM (series often up to 37.9 µM), for inactives: at the highest dose activity change, negative = inhibition, usual class: inhibitors; 300,000 tested, 1.2% active; AID 540256; active means well fitted inhibition curve with a large enough effect; inconclusive means small, poorly fitted or top-dose-only effect, or effect the other way; inactive means flat fitted curve, though single readings scatter; tested in HEK293 cells; also: % is scaled to controls: 0 for no effect and ±100 for the full control effect; nearly all actives have a fitted effect of over 50% in size; luciferase read-out
Cruzain inh Det = cruzain (T. cruzi) inhibition with detergent. purified cruzain, Z-FR-AMC fluorescence, 0.01% Triton. Potency, µM, for the others: max response, negative = inhibition, hits mostly inhibitors. 200,000 tested, 0.43% active. AID 1478;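 also: plate controls were neutral wells for no effect and buffer without enzyme for full effect; nearly all actives have a fitted effect of over 40% in size; top concentration of the series not given in the record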
Target sequence (P25779 123-467 limits assumed): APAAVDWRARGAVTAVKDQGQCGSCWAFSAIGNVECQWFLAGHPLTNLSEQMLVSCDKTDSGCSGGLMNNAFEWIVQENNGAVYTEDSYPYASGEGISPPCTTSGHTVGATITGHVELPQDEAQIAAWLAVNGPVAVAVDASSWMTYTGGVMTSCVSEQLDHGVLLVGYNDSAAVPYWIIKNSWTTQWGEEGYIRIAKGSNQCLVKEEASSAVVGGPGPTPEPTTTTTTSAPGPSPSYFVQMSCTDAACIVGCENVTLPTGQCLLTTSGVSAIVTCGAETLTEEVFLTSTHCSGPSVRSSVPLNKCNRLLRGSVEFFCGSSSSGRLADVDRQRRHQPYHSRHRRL
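Cruzain (1.5 nM) preincubated 15 min at RT with compound in 100 mM sodium acetate pH 5.5, 5 mM DTT, 0.01% Triton X-100. Reaction started with 2 uM Z-FR-AMC; AMC fluorescence (ex 360/em 450 nm) change over 60 s gave rate.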
SARS PLpro yeast = inhibitors of SARS-CoV papain-like protease in yeast. S. cerevisiae expressing SARS-CoV PLpro, growth rescue; control for the full effect not named in the record. Potency, µM (highest dose often 32.9 µM), for inactives: top-dose activity, positive = growth rescue. 330,000 tested, 0.19% active; active means well fitted rising curve with a large enough effect; inconclusive means small, poorly fitted or top-dose-only effect; inactive means no such curve, though single readings can be large or run the other way; also: 0% is about no effect; nearly all actives have a fitted effect of over 55% in size; growth read by luminescence after 48 h
Cruzain inh noDet = blocks cruzain activity in detergent-free assay. purified cruzain, Z-FR-AMC fluorescence, no detergent. Potency, µM, inactives show max response, negative = inhibition, usual class: inhibitors. 200,000 tested, 2.3% active. AID 1476;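 also: plate controls were enzyme without inhibitor for no effect and buffer without enzyme for full effect; nearly all actives have a fitted effect of over 40% in size; top concentration of the series not given in the record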
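Purified cruzain at 1.5 nM, pre-incubated 15 min with compound at room temperature in 100 mM sodium acetate pH 5.5, 5 mM DTT, 0.00005% Triton X-100. Reaction started with 2 uM Z-FR-AMC; AMC fluorescence increase over 60 s gives rate.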
RE007 growth inh = less growth of the S. pombe RE007 Vpr strain. S. pombe RE007 Vpr strain, BacTiter-Glo ATP luminescence, 24 h; control for the full effect not named in the record. Potency, µM (series often up to 92.2 µM), without a hit: at the top dose activity change, negative = less growth. 360,000 tested, 0.21% active; active = well fitted falling curve with a large enough effect; inconclusive = small, poorly fitted or top-dose-only effect; inactive = no such curve, though single readings can be large or run the other way;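 also: % is scaled to controls: 0 for no effect and ±100 for the full control effect; nearly all actives have a fitted effect of over 50% in size; the assay follows cell death caused by Vpr and the record does not say whether a fall means rescue or toxicity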
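Fission yeast strain RE007, carrying one chromosomally integrated HIV-1 vpr copy, was seeded at OD 0.01 in PMG+AL medium with 23 nL pinned compound. After 24 h at 30 °C and 99% humidity, viability was read by BacTiter-Glo luminescence.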
An asterisk follows results filed as active; & = joins results of further samples; [ ] = remark or other dose. Unless noted, calls follow the shape of the dose curve; as a rule, active = well fitted curve in the direction sought with a large enough effect; inconclusive = small, poorly fitted or top-dose-only effect, or another doubt; inactive = no such curve, though single readings can be large; an effect the other way counts as inactive or inconclusive. Potency is read from the fitted curve at half-maximal effect.

`COc1ccc(-c2cc(C)no2)cc1S(=O)(=O)N1CCOc2ccccc21` gave StopGo reporter -13%&-12%, NS1 function inh 10%, LASV entry inh -19%[46.1 µM], Cruzain inh Det 1.3%, SARS PLpro yeast 18%, Cruzain inh noDet -16% and RE007 growth inh -10%.
Cc1cc(=O)[nH]c(Nc2ccccc2C)n1 was read as StopGo reporter -7%, Marburg entry inh 12%, NS1 function inh 5%, LASV entry inh 1%, SARS PLpro yeast 0% and RE007 growth inh -7%.
Screening COCCNC(=O)c1ccccc1NC(=O)c1cc(OC)cc(OC)c1 returned StopGo reporter -22%, Marburg entry inh -22%, NS1 function inh -53%, LASV entry inh -16%, Cruzain inh Det -2.0%, SARS PLpro yeast -61%, Cruzain inh noDet 1% and RE007 growth inh 2%.
Screening Cc1nc(Cl)sc1C(=O)Nc1cccc2ccccc12 returned StopGo reporter -17%, Marburg entry inh 8%, NS1 function inh -39%, LASV entry inh 0%, Cruzain inh Det -4.4%, SARS PLpro yeast 13%, Cruzain inh noDet 7% and RE007 growth inh 20%.
`CNC(=O)COC(=O)Cc1ccc(Cl)cc1` gave StopGo reporter 6%, Marburg entry inh 8%[46.1 µM], NS1 function inh -6%, LASV entry inh 4%, SARS PLpro yeast -3% and RE007 growth inh 2%.
Screening COc1ccc(OC)c(NC(=O)Cn2c(=O)n(CC(=O)NCc3ccco3)c(=O)c3ccccc32)c1 returned StopGo reporter -4%, Marburg entry inh 7%, NS1 function inh 8%, LASV entry inh -22%, Cruzain inh Det -1.2%, SARS PLpro yeast 0%, Cruzain inh noDet 1% and RE007 growth inh -4%.
CCOCCCN(C(=O)CNC(=O)c1ccco1)C(C(=O)NC1CCCC1)c1cccc(OC)c1 (configuration not stated) was read as StopGo reporter 11%, Marburg entry inh -2%[46.1 µM], NS1 function inh -2%, LASV entry inh 0%, SARS PLpro yeast 0% and RE007 growth inh -5%.
COc1ccc(C)cc1S(=O)(=O)NCC(c1ccc2c(c1)OCO2)N1CCOCC1 (configuration not stated) was read as StopGo reporter 76%[activator], Marburg entry inh 7%, LASV entry inh 3%, SARS PLpro yeast 8% and RE007 growth inh 9%.
N#Cc1c(-c2ccc(F)cc2)cc(-c2cccs2)nc1SCC(=O)O was read as StopGo reporter -9%, NS1 function inh 23%, SARS PLpro yeast -1% and RE007 growth inh 16%.
Screening CC(C(=O)NC1CC(C)(C)NC(C)(C)C1)c1ccc([N+](=O)[O-])cc1 (configuration not stated) returned StopGo reporter -8%, Marburg entry inh -1%[46.1 µM], LASV entry inh 18%, SARS PLpro yeast 0% and RE007 growth inh 0%.
Screening CCOc1ccccc1NC(=O)CSc1nc(=O)n(Cc2ccccn2)c2c1CCC2 returned StopGo reporter 16%, Marburg entry inh -11%, LASV entry inh 0%, SARS PLpro yeast 0% and RE007 growth inh -5%.
For CCOc1ccccc1NC(=O)Nc1ccc(Br)cc1C the results were StopGo reporter -2%, NS1 function inh -5%, SARS PLpro yeast -2% and RE007 growth inh 3%.
COc1ccc(NC(=O)CC2SC(=N)N(c3ccccc3)C2=O)c(OC)c1 (configuration not stated) was read as StopGo reporter -3%, Marburg entry inh 18%[46.1 µM], LASV entry inh 4%, SARS PLpro yeast 1% and RE007 growth inh 22%.
`Cc1cc(O)cc2c1C1CCC3(C)C(=O)CCC3C1C=C2` (configuration not stated) gave StopGo reporter 22%, Marburg entry inh inconclusive, LASV entry inh 2%[46.1 µM] and RE007 growth inh 3%.
`CCC1CCCCN1C(=O)Cn1c(=O)cc(C(F)(F)F)c2c(C)nn(C)c21` (configuration not stated) gave StopGo reporter inconclusive, LASV entry inh 1%[46.1 µM], Cruzain inh Det -7.4% and Cruzain inh noDet inconclusive.
Screening COc1ccc(NC(=O)Cc2c(F)c(F)c(F)c(F)c2F)cc1OC returned StopGo reporter 3%, Marburg entry inh 7%[46.1 µM], NS1 function inh -6%, LASV entry inh 22%[46.1 µM], SARS PLpro yeast -2% and RE007 growth inh -12%.
`CCCCCNC(=O)c1ccccc1SC` gave StopGo reporter 31%[activator], Marburg entry inh 0%, NS1 function inh -1%, LASV entry inh 2%, Cruzain inh Det -0.9%, SARS PLpro yeast 9%, Cruzain inh noDet -4% and RE007 growth inh -11%.
For Cc1ccc(NP(=O)(Oc2ccccc2F)Oc2ccccc2F)cc1 the results were StopGo reporter 39%[activator], Marburg entry inh -24%, NS1 function inh 2%, LASV entry inh 38%[14.3 µM], Cruzain inh Det -10%, SARS PLpro yeast -21%, Cruzain inh noDet -7% and RE007 growth inh 2%.
`Cc1nc(N(C)Cc2ccccc2)c2c(C)c(C)sc2n1` gave StopGo reporter -6%, Marburg entry inh 1%[46.1 µM], NS1 function inh -41%, LASV entry inh 1%, SARS PLpro yeast -12% and RE007 growth inh -19%.
Screening O=C(O)C(=O)/C(=C\c1ccsc1)c1ccc2ccccc2n1 returned StopGo reporter 21%, Marburg entry inh inconclusive, NS1 function inh 2%, LASV entry inh inconclusive, SARS PLpro yeast -2% and RE007 growth inh -1%.
Cc1ccc(OCCC(=O)OCC(=O)NCCc2ccc(Cl)cc2)cc1 was read as StopGo reporter -22%, Marburg entry inh 6%, LASV entry inh -6%[46.1 µM], SARS PLpro yeast -2% and RE007 growth inh 2%.
`COc1ccc(-c2nnc(-c3cc(OC)c(OC)c(OC)c3)o2)cc1OC` gave StopGo reporter inconclusive, Marburg entry inh inconclusive, NS1 function inh -7%, LASV entry inh inconclusive, Cruzain inh Det -11%, SARS PLpro yeast 16%, Cruzain inh noDet inconclusive and RE007 growth inh 2%.
`O=C(CCS(=O)(=O)c1ccccc1)N(CCCN1CCOCC1)c1nc2ccccc2s1` gave StopGo reporter -10%, Marburg entry inh inconclusive, LASV entry inh inconclusive, SARS PLpro yeast -6% and RE007 growth inh -25%.
For Cc1ccc(NC(=O)CNCc2ccc(Cl)cc2Cl)cc1S(=O)(=O)N(C)C the results were StopGo reporter -1%, Marburg entry inh inconclusive, NS1 function inh 2%, LASV entry inh -13%[46.1 µM], SARS PLpro yeast 0% and RE007 growth inh -8%.
`O=C(CN1CCCCC1)c1ccccc1Cl` gave StopGo reporter 13%, Marburg entry inh -4%, NS1 function inh -21%, LASV entry inh 17%, Cruzain inh Det 1.2%, SARS PLpro yeast 5%, Cruzain inh noDet -2% and RE007 growth inh -3%.
For Cc1cc(NC(=O)c2cc(-c3ccc(C)c(C)c3)nc3ccccc23)no1 the results were StopGo reporter 14%, Marburg entry inh -4%, NS1 function inh 12%, LASV entry inh -3%, Cruzain inh Det -6.3%, SARS PLpro yeast 0%, Cruzain inh noDet inconclusive and RE007 growth inh 27%.
`CNc1nc(N)c(C(=O)Nc2cc(C)on2)s1` gave StopGo reporter 56%[activator], Marburg entry inh inconclusive, LASV entry inh inconclusive, SARS PLpro yeast -1% and RE007 growth inh 3%.
For CCN(Cc1ccccc1)C(=O)COC(=O)c1cc(=O)[nH]c2ccccc12 the results were StopGo reporter -20%, Marburg entry inh inconclusive, LASV entry inh 5%[46.1 µM], SARS PLpro yeast 1% and RE007 growth inh 4%.
`COc1ccc(Cc2nc3ccc(S(=O)(=O)N4CCOCC4)cc3[nH]2)cc1` gave StopGo reporter 0%, Marburg entry inh 4%, NS1 function inh 1%, LASV entry inh 15%, Cruzain inh Det 3.1%, SARS PLpro yeast 2%, Cruzain inh noDet -3% and RE007 growth inh 4%.
c1ccc(Oc2ncnc3sccc23)cc1 was read as StopGo reporter 0%, Marburg entry inh 11%, LASV entry inh 6%, SARS PLpro yeast 3% and RE007 growth inh -4%.
For CCCCC(=O)Nc1nnc(-c2ccc(OC)cc2)s1 the results were StopGo reporter 42%[activator], Marburg entry inh 5%, NS1 function inh -1%, LASV entry inh 2%, Cruzain inh Det 0.2%, SARS PLpro yeast -18%, Cruzain inh noDet -8% and RE007 growth inh -11%.
`CC#Cc1cc2c(cc1O)CCC1C2CCC2(C)C(O)CCC12` (configuration not stated) gave StopGo reporter 2%, Marburg entry inh -17%, LASV entry inh inconclusive and RE007 growth inh 12%.
`CCN(CC)C(=O)c1c(NC(=O)c2ccccc2F)sc2c1CCC(C(C)(C)C)C2` (configuration not stated) gave StopGo reporter -2%, Marburg entry inh inconclusive, LASV entry inh -13%[46.1 µM], Cruzain inh Det -14% and Cruzain inh noDet 11%.
`CCOc1cc(C(=O)NCC2CCCO2)cc(OCC)c1OCC` (configuration not stated) gave StopGo reporter -18%, Marburg entry inh -3%, NS1 function inh -1%, LASV entry inh 5%, Cruzain inh Det 0.5%, SARS PLpro yeast -2%, Cruzain inh noDet 15% and RE007 growth inh 4%.
`CCCCNc1ccc(C(CC(N)=O)NC(=O)c2ccccc2)cc1[N+](=O)[O-]` (configuration not stated) gave StopGo reporter -6%, NS1 function inh -3%, SARS PLpro yeast -2% and RE007 growth inh -7%.
CC(C)OCCCNc1ncc2c(n1)CC(c1ccc(N(C)C)cc1)CC2=O (configuration not stated) was read as StopGo reporter -7%, Marburg entry inh 10%, NS1 function inh inconclusive, LASV entry inh inconclusive, Cruzain inh Det -3.5%, SARS PLpro yeast 6%, Cruzain inh noDet 18% and RE007 growth inh 23%.
Screening O=C(C1CCCN(S(=O)(=O)c2cc(Cl)ccc2Cl)C1)N1CCCCCC1 (configuration not stated) returned StopGo reporter inconclusive, Marburg entry inh -37%, NS1 function inh -35%, LASV entry inh -14%, SARS PLpro yeast 24% and RE007 growth inh 11%.
OC1(c2ccc(F)cc2)CCN(Cc2ccccc2)C1 (configuration not stated) was read as StopGo reporter -18%, Marburg entry inh inconclusive, NS1 function inh -5%, LASV entry inh -9%, Cruzain inh Det 0.6%, SARS PLpro yeast 0%, Cruzain inh noDet -6% and RE007 growth inh -1%.
For COc1ccc(C(=O)c2sc(NC(C)C)nc2N)cc1OC the results were StopGo reporter 4%, Marburg entry inh -8%, NS1 function inh 0%, LASV entry inh 9%, Cruzain inh Det -3.5%, SARS PLpro yeast 12%, Cruzain inh noDet -4% and RE007 growth inh 16%.
Screening Cc1nn2c(=O)c(NC(=O)c3ccc(F)cc3)cnc2s1 returned StopGo reporter -1%, Marburg entry inh -8%, NS1 function inh 2%, LASV entry inh 3%, Cruzain inh Det 0.5%, SARS PLpro yeast 5%, Cruzain inh noDet -16% and RE007 growth inh 8%.

Bioassay records (PubChem)
